High-throughput results deposited in PubChem BioAssay by several laboratories.
Proteasome disasm: blocks ATP-dependent breakdown of the yeast 26S proteasome; anti-FLAG beads, GFP-proteasome disassembly, flow cytometry; inhibition of disassembly, % (no concentration beside the values); 24,000 tested, 0.2% active; AID 751;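 active = above 40%; inconclusive = likely self-fluorescent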;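 also: plate controls were ATP control with full disassembly for no effect and ATP-gamma-S intact proteasomes for full effect; higher percent means more bead fluorescence retained so stronger block of disassembly; stock transfer was 100 nL into about 10 µL; wells with too few beads may also be inconclusive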
VCAM-1 up: boosters of cytokine-driven VCAM-1 levels – cell-based, plate reader, pooled HUVEC, TNFa stimulus (AID 455); HUVEC TNFa-induced VCAM-1 immunofluorescence, plate reader; numbers were filed only for top-ranked candidate wells; augmentation, % at 5 µM; 10,000 tested, 0.2% active;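 active = a compound raising TNF-alpha-driven VCAM-1 surface staining, with its hit status upheld on visual or statistical review; inactive = the rest, including hits rejected on review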;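 also: 0% = TNFa with vehicle and 100% = strongest image-checked hit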
An asterisk follows results filed as active; i = inactive; ? = inconclusive; nt = no result given. An excerpt. The share of hits here may be higher or lower than overall.

SMILES | Proteasome disasm | VCAM-1 up
CC(C)OC(=O)c1nnn(-c2nonc2N)c1CSc1ccccn1 | -1.2 | nt
CN1CCN(c2nc(-c3ccncc3)nc3ccccc23)CC1 | 0.8 | i
CCOC(=O)Cn1nnnc1CN(Cc1ccc(OC)cc1)Cc1cc2cc(C)ccc2[nH]c1=O | -3.0 | i
COc1cc(C(=O)Nc2cc(-c3ccccc3)[nH]n2)cc(OC)c1OC | 5.1 | i
CCCOc1cccc(C(=O)Nc2cc(NC(=O)c3ccco3)ccc2OC)c1 | -3.0 | i
C=CCN=C1SCC(=O)N1S(=O)(=O)c1ccc(C)cc1 | ? | i
O=C(CSc1nnc(Cc2cc(=O)[nH]c(=O)[nH]2)n1-c1ccc(Cl)cc1)NC1CCCC1 | 1.5 | nt
CCOc1ccccc1NC(=O)C1CCCN(S(=O)(=O)c2c(C)[nH]c(=O)[nH]c2=O)C1 (stereo not given) | 0.0 | nt
CCOc1ccccc1NC(=O)CSc1c(C)n[nH]c1C | -0.8 | i
COc1ccc(NC(=O)NCCN2CCN(c3cccc(Cl)c3)CC2)cc1 | 0.9 | nt
CC(=O)c1cccc(NS(=O)(=O)c2c(C)n[nH]c2C)c1 | 0.5 | nt
CCCc1nn(CCc2ccccn2)c(N)c1CC | 0.2 | i
CCC(=O)Oc1ccc2c(C)cc(=O)oc2c1C | 0.1 | i
COc1ccccc1NC1=C(C)C(=O)CC1 | -1.1 | i
O=C(CCn1cccc1)NCc1ccc2c(c1)OCO2 | 0.2 | nt
Cc1c(C(=O)N2CCN(c3ccccc3F)CC2)sc2ncn(CC(=O)N3CCOCC3)c(=O)c12 | 0.7 | nt
CN1CCN(C(=O)c2cc(-c3cccc(Cl)c3)on2)CC1 | -0.8 | nt
COC(=O)c1ccc2c(=O)sc(N3CCC(C(N)=O)CC3)nc2c1 | -1.0 | nt
COc1ccccc1N1C(=O)c2ccccc2NC1c1ccncc1 (stereo not given) | -2.4 | i
COc1ccc(Cc2nnc(-c3cccc(C)c3)o2)cc1OC | 2.1 | nt

Sorted by length of the SMILES (rising): 3 of the compounds above
SMILES | Proteasome disasm | VCAM-1 up
COc1ccccc1NC1=C(C)C(=O)CC1 | -1.1 | i
CN1CCN(C(=O)c2cc(-c3cccc(Cl)c3)on2)CC1 | -0.8 | nt
COc1cc(C(=O)Nc2cc(-c3ccccc3)[nH]n2)cc(OC)c1OC | 5.1 | i

Further structures
SMILES | Proteasome disasm | VCAM-1 up
Cc1ccc(N(C(C)C(=O)O)S(=O)(=O)c2c(C)n[nH]c2C)cc1 (stereo not given) | -0.7 | nt
CN(CCc1ccccn1)C(=O)CN(C)S(=O)(=O)c1ccc2c(c1)c(=O)n(C)c(=O)n2C | 0.7 | nt
CC(C)[C@H](NC(=O)OC(C)(C)C)c1nnc(SCc2cccc(F)c2)o1 | -1.6 | i
COc1ccccc1N1CCN(C(=O)c2ccc3nc(-c4ccco4)c(-c4ccco4)nc3c2)CC1 | 1.2 | i
CCOC(=O)c1cccc(NC(=O)CCn2nnc3ccccc32)c1 | -1.0 | i
O=C(O)C1C2CCC(O2)C1C(=O)Nc1cccc(F)c1 (stereo not given) | 0.2 | i
Nc1ccc(Sc2nnnn2-c2ccccc2)c(Cl)c1 | 0.9 | i
CC(C)C(NCc1c(Cl)cccc1Cl)C(=O)O (stereo not given) | 0.1 | nt
O=C(Cn1c(S(=O)(=O)Cc2ccccc2)nc2ccccc21)N1CCCCC1 | -1.5 | nt
COc1ccc(C(=O)N2CCOCC2)cc1Br | -6.0 | i
CCN(CC)S(=O)(=O)c1ccc2c(c1)c(=O)c(C(=O)NCCN(C)CCc1ccccc1)cn2C | -0.6 | nt
O=C(NCC1COc2ccccc2O1)C1CCN(S(=O)(=O)c2cccc3nsnc23)CC1 (stereo not given) | 0.1 | nt
COc1ccc(S(=O)(=O)n2nc(OC(=O)C3CCCCC3)cc2N)cc1 | 0.7 | nt
O=C(CCCCCn1c(=S)[nH]c2cc3c(cc2c1=O)OCO3)N1CCN(C(=O)c2ccco2)CC1 | 1.3 | nt
CC1CN(C(=O)Nc2ccc3snnc3c2)c2ccccc21 (stereo not given) | 1.8 | nt
COc1ccccc1CNS(=O)(=O)c1ccc2c(c1)oc(=O)n2C | -1.1 | nt
CCOCCCNc1ncnc2c1[nH]c1ccccc12 | 1.3 | i
Cc1cc(S(=O)(=O)NCCc2ccccc2)c(C)s1 | -0.8 | nt
O=C1CCc2cc(S(=O)(=O)N3CCC(C(=O)NCc4ccccn4)CC3)ccc2N1 | 3.4 | i
O=C(NCc1cccnc1)c1cn(CCc2ccccc2)nn1 | -1.6 | i

Part of the list above, field by field.
COc1ccccc1CNS(=O)(=O)c1ccc2c(c1)oc(=O)n2C
  Proteasome disasm = -1.1 | VCAM-1 up = nt
CC1CN(C(=O)Nc2ccc3snnc3c2)c2ccccc21 (stereo not given)
  Proteasome disasm = 1.8 | VCAM-1 up = nt
C=CCN=C1SCC(=O)N1S(=O)(=O)c1ccc(C)cc1
  Proteasome disasm = ? | VCAM-1 up = i

Further records follow:
SMILES | Proteasome disasm | VCAM-1 up
Clc1ccc(SCCn2ccnc2)cc1 | 1.4 | i
CCOC(=O)C(CC)Sc1nc2c(c(=O)[nH]c(=O)n2C)n1C/C=C(/C)Cl (stereo not given) | 0.8 | i
CCOC(=O)c1[nH]c(C)c(C(=O)N2CCN(c3ccccc3)CC2)c1C | 2.2 | nt
CCOC(=O)c1[nH]c(C)c(C(=O)N2CCN(c3ccc(F)cc3)CC2)c1C | -2.2 | i
O=S(=O)(c1ccccc1)c1nc(-c2cccs2)oc1NCC1CCCO1 (stereo not given) | 3.8 | i
Cc1ccc(C2C=C(c3ccccc3OC(F)F)Nc3ncnn32)cc1 (stereo not given) | 0.1 | nt
Cc1cc(Nc2ccccc2)n(CCC#N)n1 | -1.2 | i
CN(C)c1ccc(NC(=O)CN2CCN(S(=O)(=O)c3cc(Cl)ccc3Cl)CC2)cc1 | 0.0 | nt
O=C(CCn1nc(-c2ccc(Cl)cc2)ccc1=O)NCc1ccccn1 | 0.2 | nt
O=C(NCCCN1CCOCC1)c1cc2c(=O)[nH]c3ccccc3c2s1 | -3.5 | nt
COc1ccc(OC)c(N(CC(=O)Nc2cccnc2)S(=O)(=O)c2ccc(OC)c(OC)c2)c1 | ? | i
O=C(c1noc2c1CCCC2)N1CCN(Cc2ccccc2)CC1 | -0.7 | nt
Nc1nnc(SCC(=O)N2CCc3ccccc32)n1-c1ccccc1 | -2.5 | i
Cc1nc(CNS(=O)(=O)c2cc(C)c(C)cc2C)cs1 | -0.2 | i
CCOC(=O)N1CCN(c2c(NCC3CCCO3)c(=O)c2=O)CC1 (stereo not given) | -2.9 | nt
C=CCOC(=O)c1[nH]c2c(c1C)C(=O)CC(c1cc(OC)c(OC)c(OC)c1)C2 (stereo not given) | 1.0 | nt
Cc1ccc(C)c(N2CCN(C(=O)C3CCN(S(=O)(=O)c4cccc5nsnc45)CC3)CC2)c1 | -0.4 | nt
Oc1ccc2cccnc2c1 | -0.2 | i
Nn1c(SCc2csc(-c3ccccc3)n2)nnc1-c1cccs1 | -0.4 | i
C=CCNc1oc(-c2cccc3ccccc23)nc1C#N | 1.3 | i

Entries above that contain a cyano group (2):
SMILES | Proteasome disasm | VCAM-1 up
Cc1cc(Nc2ccccc2)n(CCC#N)n1 | -1.2 | i
C=CCNc1oc(-c2cccc3ccccc23)nc1C#N | 1.3 | i

Further results follow.
SMILES | Proteasome disasm | VCAM-1 up
CCCN1Cc2cccc(C(=O)NC3CCCC3)c2C1=O | -1.7 | i
O=C1CN(C(=O)c2ccco2)C(c2ccc(F)cc2)c2cc(Cl)ccc2N1 (stereo not given) | 3.1 | nt
O=C(CN1C(=O)CCS(=O)(=O)c2ccccc21)NCc1ccc2c(c1)OCO2 | -2.6 | nt
C/C(=N\O)C(=O)NCC1CCNCC1 | -1.8 | nt
CCCS(=O)(=O)N1CCCC(C(=O)NC2CCCCC2)C1 (stereo not given) | -0.4 | nt
COc1ccc(N2CCN(C(c3ccco3)c3sc4nc(C)nn4c3O)CC2)cc1 (stereo not given) | 0.0 | nt
CC(C)NC(=O)C1(O)c2ccccc2NC(=O)N1c1ccc(Cl)c(Cl)c1 (stereo not given) | -0.9 | nt
CCOC(=O)N1CCN(Cc2cc(=O)oc3ccc4ccccc4c23)CC1 | 2.4 | i
O=C(Nc1nonc1NC(=O)C1CCCCC1)C1CCCCC1 | -2.7 | i
O=C(CCN1C(=O)COc2ccccc21)NCCN1CCOCC1 | 0.6 | nt
Clc1cccc(N2CCN(Cc3nc(-c4ccccc4)no3)CC2)c1 | 1.0 | i
COc1ccc2oc(=O)c(-c3nnc(NCc4ccco4)s3)cc2c1 | 1.1 | nt
CCOC(=O)CNC(=O)CN1C(=O)CCSc2ccccc21 | -6.8 | nt
COc1ccc(-c2cc(C(F)(F)F)nc(S(C)(=O)=O)n2)cc1OC | 4.7 | nt
Cc1cc(C)cc(N(CC(=O)N2CCc3ccccc32)S(=O)(=O)c2c(C)noc2C)c1 | 1.2 | nt
CCCNC(=O)C1CCN(S(=O)(=O)c2ccc3nc4c(c(C(=O)O)c3c2)CCCCC4)CC1 | 0.1 | i
CCOC(=O)N1CCN(C(=O)c2ccccc2NC(=O)COc2ccccc2C)CC1 | -1.2 | nt
CCOc1ccccc1C(=O)N(CN1CCCC1=O)c1ccc(C)c(Cl)c1 | -2.4 | nt
Cc1cc2cc(CCNS(C)(=O)=O)c(=O)[nH]c2cc1C | 1.1 | nt
COCCNC(=O)c1ccc2c(=O)n(CCOC)c(=O)[nH]c2c1 | -1.3 | nt
Cc1nnc(SCC(=O)Nc2nccs2)[nH]c1=O | -0.9 | nt
O=C(O)CCN1C(=O)CC2(CCCCC2)C1=O | -0.4 | nt
CC1CC(C)CN(S(=O)(=O)c2ccc(NC(=O)C3COc4ccccc4O3)cc2)C1 (stereo not given) | 0.0 | nt
COc1ccc(C2C3=C(OC(C)=O)c4ccccc4C3=Nc3c2c(=O)n(C)c(=O)n3C)cc1 (stereo not given) | -0.3 | i
COc1ccc(C(C)NC(=O)C2C(=O)NC3(C)CC2c2ccccc2O3)cc1 (stereo not given) | -1.7 | nt
CCn1c(SCC(=O)NC)nnc1C(C)C | 0.3 | i
C=CCN1C(=O)C2(C(C#N)=C(N)Oc3n[nH]c(CCC)c32)c2ccccc21 (stereo not given) | -0.6 | i
CCN(Cc1ccccc1)C(=O)Cn1c(=O)n(CC(=O)NCc2ccco2)c(=O)c2sccc21 | 0.1 | nt
O=C(CCN1CCN(c2ccccn2)CC1)Nc1ccc(F)cc1 | -0.8 | nt
O=C(NCc1ccc(Cl)cc1)C1C2C=CC3(CN(Cc4cccnc4)C(=O)C13)O2 (stereo not given) | -2.4 | nt
CC(=O)O[C@H]1C(=O)[C@]2(C)[C@H]([C@H](OC(=O)c3ccccc3)[C@]3(O)C[C@H](OC(=O)[C@H](O)[C@@H](NC(=O)c4ccccc4)c4ccccc4)C(C)=C1C3(C)C)[C@]1(OC(C)=O)CO[C@@H]1C[C@@H]2O | 1.2 | i
Cc1ccc(S(=O)(=O)NC(=O)c2cc(C)n(CCCn3ccnc3)c2C)cc1 | -0.3 | i
COc1ccc(NC(=O)NCCCN2CCN(c3cc(C)ccc3C)CC2)cc1 | ? | nt
O=C(Nc1ccc(S(=O)(=O)N2CCCC2)cc1)C1COc2ccccc2O1 (stereo not given) | 0.5 | nt
CC(C)(C)n1ncc2c(=O)n(CC(=O)N3CCN(c4ccccc4)CC3)cnc21 | 0.4 | nt
Cc1nn(Cc2ccc(C(=O)NC(C)(C)C)o2)c(C)c1Br | 0.4 | nt
CC(C)NS(=O)(=O)c1ccc2c(c1)oc(=O)n2C | -2.6 | nt
Cc1ccc(NC(=O)N2CCCN(Cc3ccc(F)cc3)C2)cc1C | -0.9 | nt
COc1ccccc1C(=O)Nc1c2c(nn1-c1cccc(C)c1C)CS(=O)(=O)C2 | -0.1 | i
O=C(NCc1ccco1)c1cc2sccc2n1Cc1ccccc1 | -1.0 | i
CCOc1ccc(-c2cc(CCCC(=O)NCc3cccnc3)no2)cc1 | 1.6 | nt
COc1cccc(Nc2cc(C)nc3nc(C)nn23)c1 | 1.1 | nt
COc1ccc(-c2nnc3ccc(SCC(=O)NCc4ccco4)nn23)cc1OC | 2.7 | nt
O=C(NCCCN1CCN(CCCNC(=O)c2ccc(F)cc2)CC1)c1ccc(F)cc1 | 0.3 | i
CN(C(=O)c1cnc(N2CCN(c3ncccn3)CC2)c2ccccc12)c1ccc(Cl)cc1 | 0.2 | nt
CCC(Sc1nc(=O)cc(N)n1-c1ccccc1)C(=O)Nc1ccc(Cl)cn1 (stereo not given) | -0.5 | nt
O=C(Nc1ccc(F)cc1)N(CCCN1CCOCC1)Cc1cc2cc3c(cc2[nH]c1=O)OCO3 | -5.2 | i
CCN1CCCC1CNC(=O)c1ccc(CS(=O)(=O)c2ccccc2C)o1 (stereo not given) | -0.2 | nt
O=c1c(-c2ccc(Br)cc2)coc2c(CN3CCOCC3)c(O)ccc12 | 2.2 | i
c1cncc(-c2nnc(SCc3cccc4ccccc34)o2)c1 | -0.2 | nt
O=C1CCCC(O)=C1C=Nc1ccc2c(c1)oc1ccccc12 | 0.7 | i
COc1ccc(NC(=O)CC2C(=O)N(c3cccc(OC)c3)C(=O)N2C2CCCCC2)cc1 (stereo not given) | 1.3 | nt
Cc1ccc(C)c(CN2CCCNC2=O)c1 | 0.7 | nt
CCOC(=O)CSc1nc2c(cnn2-c2ccc(C)cc2)c(=O)[nH]1 | -0.8 | nt
C=CCSc1nnc(-c2cc(Br)ccc2N)c(=O)[nH]1 | -3.6 | nt
